NPYLR7 ag = activates Aedes aegypti NPYLR7 receptor | activation, % at 10 µM | 0.15% of 270,000 active | HEK293T NPYLR7/Galpha15, GCaMP6s calcium fluorescence | AID 1259423; in the data active = activation above about 40%;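 also: 0% = vehicle and 100% = reference agonist at the receptor; some compounds past the cut are filed as inactive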
NPYLR7 ag max-min = recorded beside NPYLR7 ag, whose call it bears; activation, %; measured here: Max-Min RFU normalised activation; some inactives read as strong as hits;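 span of the calcium signal over five minutes; 0% = vehicle and 100% = native peptide agonist; compound fluorescence can raise it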
Numbers without * were called inactive; & = joins results of further samples.

For Cn1c(=O)c(C(=O)Nc2ccccc2Cl)c(O)c2ccccc21 the results were NPYLR7 ag 5 and NPYLR7 ag max-min 4.
Cc1cc(=O)[nH]c(NN=Cc2cc(C)n(-c3ccc(I)cc3)c2C)n1 was read as NPYLR7 ag 9 and NPYLR7 ag max-min 5.
Screening CON(C)C(=O)c1cc(C)ccc1NS(C)(=O)=O returned NPYLR7 ag 1 and NPYLR7 ag max-min 0.
Screening O=C(C=Cc1ccccc1)N=C1N=C2C=CC(Br)=CN2Cc2ccccc21 returned NPYLR7 ag -6 and NPYLR7 ag max-min -11.
Cc1nc(C)c(-c2ccc(SCC(=O)Nc3ccc(Cl)c(Cl)c3)nn2)s1 was read as NPYLR7 ag 2 and NPYLR7 ag max-min -9.
Cc1nn(CC(=O)NCc2ccco2)c(=O)c2c1cnn2C(C)(C)C was read as NPYLR7 ag 7 and NPYLR7 ag max-min 2.
Cc1ccc(CN(CCN(C)C)C(=O)C2[C@@H]3[C@H]4CC[C@H](C4)[C@H]23)s1 (stereo partly drawn) was read as NPYLR7 ag -2 and NPYLR7 ag max-min -5.
CCOC(=O)C1CCN(C(=O)c2ccc3nc(-c4ccccc4)c(-c4ccccc4)nc3c2)CC1 was read as NPYLR7 ag -5 and NPYLR7 ag max-min -12.
`O=c1c2ccccc2nnn1Cc1nc(Cc2ccccc2)n[nH]1` gave NPYLR7 ag 11 and NPYLR7 ag max-min 6.
Screening Cc1ccc2c(c1)C1(SCCN1C(=O)c1ccccc1C)C(=O)N2Cc1ccc(F)c(F)c1 (stereo not drawn) returned NPYLR7 ag 7 and NPYLR7 ag max-min 5.
CCNC(=O)Nc1ccc(N(C)C)c(CN(C(=O)c2ccco2)C(C)CC)c1 (stereo not drawn) was read as NPYLR7 ag 10 and NPYLR7 ag max-min 21.
`CN(Cc1ccc(Cl)cc1Cl)C(=O)C1CCN(S(=O)(=O)c2ccc3c(c2)CCC3)CC1` gave NPYLR7 ag 3 and NPYLR7 ag max-min 2.

The closing 4 records of the part above lead into the next.
`O=c1c2ccccc2nnn1Cc1nc(Cc2ccccc2)n[nH]1` gave NPYLR7 ag 11 and NPYLR7 ag max-min 6.
Screening Cc1ccc2c(c1)C1(SCCN1C(=O)c1ccccc1C)C(=O)N2Cc1ccc(F)c(F)c1 (stereo not drawn) returned NPYLR7 ag 7 and NPYLR7 ag max-min 5.
CCNC(=O)Nc1ccc(N(C)C)c(CN(C(=O)c2ccco2)C(C)CC)c1 (stereo not drawn) was read as NPYLR7 ag 10 and NPYLR7 ag max-min 21.
`CN(Cc1ccc(Cl)cc1Cl)C(=O)C1CCN(S(=O)(=O)c2ccc3c(c2)CCC3)CC1` gave NPYLR7 ag 3 and NPYLR7 ag max-min 2.
Clc1ccccc1-c1nc2c(NCc3ccccc3)nccc2[nH]1 was read as NPYLR7 ag -8 and NPYLR7 ag max-min -11.
For COCCNC(=O)c1cccc2c(-c3ccnn3C)coc12 the results were NPYLR7 ag 8 and NPYLR7 ag max-min 11.
For CCOC(=O)N(Cc1ccc(Cl)cc1)C(=O)CC#N the results were NPYLR7 ag -4 and NPYLR7 ag max-min -6.
Screening CCCC(=O)N1CCC1(C)C(=O)Nc1cc(OC)ccc1OC (stereo not drawn) returned NPYLR7 ag -2 and NPYLR7 ag max-min -3.
For CC(C)(C)n1ccc2c(cnc3nc(-c4cccnc4)nn32)c1=O the results were NPYLR7 ag 1 and NPYLR7 ag max-min 1.
CCS(=O)(=O)Oc1cc(CN(C(=O)CC(C)C)C2CC2)ccc1OC was read as NPYLR7 ag 19 and NPYLR7 ag max-min 11.
`COCCN(C(=O)CCl)c1c(N)n(CC(C)C)c(=O)[nH]c1=O` gave NPYLR7 ag -8 and NPYLR7 ag max-min -11.
Screening CCCC(C#N)NC(=O)CCCOc1cccc(F)c1 (stereo not drawn) returned NPYLR7 ag 8 and NPYLR7 ag max-min 5.
Nc1c(C(=O)CSc2nnc(NCc3ccco3)s2)c(=O)[nH]c(=O)n1C1CC1 was read as NPYLR7 ag -1 and NPYLR7 ag max-min 4.
Cc1ccc(NS(=O)(=O)c2ccc(C(=O)N(C)C3CCC(C)CC3)cc2)cc1 (stereo not drawn) was read as NPYLR7 ag -4 and NPYLR7 ag max-min -6.
For O=C(NCc1cnc2ccccn12)C1CCC(=O)N(CCc2cccc(F)c2)C1 (stereo not drawn) the results were NPYLR7 ag 17 and NPYLR7 ag max-min 6.
CC1N=C(C(=O)OCC(=O)C(C#N)=C2N(C)c3ccccc3N2C)NN(c2ccccc2)C1=O (stereo not drawn) was read as NPYLR7 ag 3 and NPYLR7 ag max-min 8.

As a short view, some entries already given:
Cc1nc(C)c(-c2ccc(SCC(=O)Nc3ccc(Cl)c(Cl)c3)nn2)s1 was read as NPYLR7 ag 2 and NPYLR7 ag max-min -9.
Cc1nn(CC(=O)NCc2ccco2)c(=O)c2c1cnn2C(C)(C)C was read as NPYLR7 ag 7 and NPYLR7 ag max-min 2.
Cc1ccc(CN(CCN(C)C)C(=O)C2[C@@H]3[C@H]4CC[C@H](C4)[C@H]23)s1 (stereo partly drawn) was read as NPYLR7 ag -2 and NPYLR7 ag max-min -5.

The list continues.
CCSc1nnc(Sc2ccc(C(C)(C)C)nn2)s1 was read as NPYLR7 ag 7 and NPYLR7 ag max-min 3.
COc1cccc(-c2noc3c2CN(CCCc2cccnc2)CC3)c1 was read as NPYLR7 ag 17 and NPYLR7 ag max-min 6.
Screening Cc1ccsc1CN(Cc1nc(-c2ccco2)no1)C1CC1 returned NPYLR7 ag -6 and NPYLR7 ag max-min -10.
CC(=O)NCc1nnc2n1CCN(c1ncnc3c1CCC3)CC2 was read as NPYLR7 ag -2 and NPYLR7 ag max-min -4.
Screening Cc1ccnn1-c1cccc(NC(=O)NCC2CCCO2)c1 (stereo not drawn) returned NPYLR7 ag 6 and NPYLR7 ag max-min 2.
`CC=CC=CC(=O)OCC(=O)NC(=O)NC1CCCC1` gave NPYLR7 ag -7 and NPYLR7 ag max-min 0.
`CCOC(=O)N1CCN(C(c2cccnc2)c2c(O)cc(C)n(CCOC)c2=O)CC1` (stereo not drawn) gave NPYLR7 ag 10 and NPYLR7 ag max-min 2.
For Cc1ccc(-c2cc3c4nnc(CCC(=O)N5CCN(c6ccccn6)CC5)n4ccn3n2)cc1C the results were NPYLR7 ag -8 and NPYLR7 ag max-min -10.
Screening COc1ccccc1-n1c(SCc2ccc(C(=O)NC3CC3)cc2)nnc1-c1ccc([N+](=O)[O-])cc1 returned NPYLR7 ag -1 and NPYLR7 ag max-min 9.
Screening COC(C)c1cccc(-c2nc(C(F)(F)F)nc(C)c2C)c1 (stereo not drawn) returned NPYLR7 ag -2 and NPYLR7 ag max-min 3.
`CC1CCc2cc(F)cc3c(=O)c(C(=O)O)cn1c23` (stereo not drawn) gave NPYLR7 ag -10&-1 and NPYLR7 ag max-min -11&-6.
For O=C(N[C@@H]1CCCCC1NC(=O)C1CCN(S(=O)(=O)Cc2ccccc2)CC1)c1ccccc1 (stereo partly drawn) the results were NPYLR7 ag 27 and NPYLR7 ag max-min 24.

Overlap with the part before: 2 compounds, followed by the next part.
`CC1CCc2cc(F)cc3c(=O)c(C(=O)O)cn1c23` (stereo not drawn) gave NPYLR7 ag -10&-1 and NPYLR7 ag max-min -11&-6.
For O=C(N[C@@H]1CCCCC1NC(=O)C1CCN(S(=O)(=O)Cc2ccccc2)CC1)c1ccccc1 (stereo partly drawn) the results were NPYLR7 ag 27 and NPYLR7 ag max-min 24.
Screening Cc1ccc(C(=O)NC(c2ccc(F)cc2)c2ccc(SCc3ccccc3)cc2)s1 (stereo not drawn) returned NPYLR7 ag 2 and NPYLR7 ag max-min -6.
For CN1CCC2(CC1)C1CN(C)CC=C1C(C#N)C(=N)C2(C#N)C#N (stereo not drawn) the results were NPYLR7 ag 30 and NPYLR7 ag max-min 17.
Screening COc1ccc(CNC(=O)CCC(=O)N2CCc3ccccc3C2)cc1 returned NPYLR7 ag -10 and NPYLR7 ag max-min -14.
For NC(=O)c1cc2cc(Br)ccc2oc1=Nc1ccccc1F the results were NPYLR7 ag -5 and NPYLR7 ag max-min -12.
`CCCCC(CC)C(=O)N1CCc2cc(OC)c(OC)cc2C1c1c(F)cccc1Cl` (stereo not drawn) gave NPYLR7 ag 9 and NPYLR7 ag max-min 4.
COC(C)C(=O)NC(Cc1ccccc1)CN(C)C(=O)C(C)OC (stereo not drawn) was read as NPYLR7 ag 6 and NPYLR7 ag max-min 4.
`Nc1cc(-c2ccc(C3(O)CCNCC3)cc2)c2cc[nH]c2n1` gave NPYLR7 ag 8 and NPYLR7 ag max-min 6.
`C=CCn1c(SCC(=O)c2cccc(OC)c2)nnc1-c1cc(-c2cccs2)nc2cc(C)c(C)cc12` gave NPYLR7 ag -6 and NPYLR7 ag max-min -8.
`COc1ccc(C2CCCCCN2C(C(=O)N(C)C)c2ccccc2)cc1` (stereo not drawn) gave NPYLR7 ag 6 and NPYLR7 ag max-min 8.
COc1ccccc1C(=O)Nc1c(C)nc2sccn2c1=O was read as NPYLR7 ag 12 and NPYLR7 ag max-min 8.
`Cc1nc(CNC(=O)CC(c2cccc(O)c2)c2ccccc2Cl)n[nH]1` (stereo not drawn) gave NPYLR7 ag 6 and NPYLR7 ag max-min 3.
For CCC(C)NC(=O)C1C(c2ccc(NC(=O)C(C)C)cc2)OC(=O)N1Cc1cccc(C)c1 (stereo not drawn) the results were NPYLR7 ag 5 and NPYLR7 ag max-min 4.

Reprinted from the part before: four compounds, then new ones.
`COc1ccc(C2CCCCCN2C(C(=O)N(C)C)c2ccccc2)cc1` (stereo not drawn) gave NPYLR7 ag 6 and NPYLR7 ag max-min 8.
COc1ccccc1C(=O)Nc1c(C)nc2sccn2c1=O was read as NPYLR7 ag 12 and NPYLR7 ag max-min 8.
`Cc1nc(CNC(=O)CC(c2cccc(O)c2)c2ccccc2Cl)n[nH]1` (stereo not drawn) gave NPYLR7 ag 6 and NPYLR7 ag max-min 3.
For CCC(C)NC(=O)C1C(c2ccc(NC(=O)C(C)C)cc2)OC(=O)N1Cc1cccc(C)c1 (stereo not drawn) the results were NPYLR7 ag 5 and NPYLR7 ag max-min 4.
For CC(O)CN(Cc1ccco1)Cc1c(-c2ccccc2)noc1N1CCCCC1 (stereo not drawn) the results were NPYLR7 ag 7 and NPYLR7 ag max-min 10.
Screening COC(=O)CCc1ccc(C=CC(=O)O)o1 returned NPYLR7 ag 4 and NPYLR7 ag max-min 12.
`CN1CCN(c2nc3c(c(=O)[nH]c(=O)n3C)n2CCCc2ccccc2)CC1` gave NPYLR7 ag -2 and NPYLR7 ag max-min 38.
Screening Cc1cccc2nc(CN3CCN(C(=O)C4CC4)CC3)cc(=O)n12 returned NPYLR7 ag 3 and NPYLR7 ag max-min 2.
CC(C)Sc1nnc(CSc2ncccn2)n1CCc1ccccc1 was read as NPYLR7 ag 0 and NPYLR7 ag max-min 4.
`CCOc1ccc(C(C2Sc3nc(C)nn3C2=O)N2CCCC2)cc1OC` (stereo not drawn) gave NPYLR7 ag 2 and NPYLR7 ag max-min -1.
CCc1cc(N2CCC(O)(c3ccccn3)CC2)nc(N2CCOCC2)n1 was read as NPYLR7 ag -5 and NPYLR7 ag max-min -7.
CC=CC=CC(=O)OCC(=O)Nc1sc(C(=O)N(C)C)c(C)c1C(=O)OCC was read as NPYLR7 ag 1 and NPYLR7 ag max-min 11.
Screening COCc1nc(CN2CC(c3cccnc3)C2)no1 returned NPYLR7 ag 11 and NPYLR7 ag max-min 7.
Screening CCn1cc(CN2CCC(C3(CC)NC(=O)N(CCc4ccc(OC)cc4)C3=O)CC2)c(C)n1 (stereo not drawn) returned NPYLR7 ag 4 and NPYLR7 ag max-min -3.
For Cn1nc(Cc2ccc(Cl)cc2)n(Cc2ccccc2)c1=S the results were NPYLR7 ag -7 and NPYLR7 ag max-min -9.
`O=C(NCCc1ccc(F)cc1)c1ccc2c(c1)OCO2` gave NPYLR7 ag -5 and NPYLR7 ag max-min -7.
Screening Cc1ccc(OCc2cc(C(=O)NCC3COCCO3)no2)cc1C (stereo not drawn) returned NPYLR7 ag 25 and NPYLR7 ag max-min 19.
For O=C(Nc1ncc(S(=O)(=O)c2ccc([N+](=O)[O-])cc2)s1)c1ccc(C(=O)c2ccccc2)cc1 the results were NPYLR7 ag 3 and NPYLR7 ag max-min -1.
Screening NC(=O)[C@H](Cc1c[nH]c2ccccc12)NC(=O)c1ccc(CSc2ccc3ccccc3n2)cc1 returned NPYLR7 ag 2 and NPYLR7 ag max-min -7.
CCN(C/C=C/c1ccccc1)C(=O)c1ccc(C#CC(C)(C)O)o1 was read as NPYLR7 ag -3 and NPYLR7 ag max-min -10.
O=C(COc1ccc(Cl)cc1)N1CCCC(OCc2ccc(F)cc2)C1 (stereo not drawn) was read as NPYLR7 ag 5 and NPYLR7 ag max-min 1.
Screening Cc1ccc(C2N3CC4(C)CN2CC(C)(C3)C4O)cc1 (stereo not drawn) returned NPYLR7 ag 0 and NPYLR7 ag max-min 3.
Cc1ccc(Cc2nc(N3CCN(C(=O)Nc4ccccc4C(F)(F)F)CC3)c3c(-c4cccnc4)noc3n2)cc1 was read as NPYLR7 ag 12 and NPYLR7 ag max-min -1.
Screening CN1C(=O)CC(CC(=O)N2CCN(c3ncccn3)CC2)(c2ccc(-c3ccccc3)cc2)C1=O (stereo not drawn) returned NPYLR7 ag 0 and NPYLR7 ag max-min -3.
Screening CN(Cc1ccsc1)C(=O)c1[nH]nc(N)c1-c1ccccc1 returned NPYLR7 ag -3 and NPYLR7 ag max-min -4.
For O=C(CN1CCN(C(=O)C2CCN(S(=O)(=O)c3ccc(Cl)cc3)CC2)CC1)NC1CC1 the results were NPYLR7 ag 9 and NPYLR7 ag max-min 9.
CCc1nc(NC(=O)C2CCC(CNC(=O)OC(C)(C)C)CC2)n[nH]1 (stereo not drawn) was read as NPYLR7 ag -4 and NPYLR7 ag max-min -9.
`CCN(CC)C(=O)C(C1CCCC1)N1CCN(C(=O)c2ccccc2Cl)CC1` (stereo not drawn) gave NPYLR7 ag -5 and NPYLR7 ag max-min -4.
CCCOc1ccc(Cl)cc1NC(=O)c1ccc(S(C)(=O)=O)cc1 was read as NPYLR7 ag 3 and NPYLR7 ag max-min -1.
`Cc1cc2c(cc1C(=O)N1CCOC(c3ccc(Cl)cc3)C1)OCCO2` (stereo not drawn) gave NPYLR7 ag 9 and NPYLR7 ag max-min 2.

Not all compounds are listed, so the mix of outcomes need not match the whole.
